Screening results deposited in PubChem BioAssay by several laboratories.
Mtb hypoxia inh: inhibitors of hypoxia-regulated fluorescent reporter in Mycobacterium tuberculosis; fluorescence inhibition, % (test concentration not listed); actives 0.1% (n = 300,000); AID 1159583; M. tuberculosis hypoxia-regulated fluorescent reporter, fluorescence;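 active = 35 to 45% if threefold the growth effect, above 45% if 1.5-fold the growth effect; inactive = the rest, general growth blockers included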;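 note: wells of about 50 µL received 100 nL stock; 0% = vehicle wells and 100% = reference inhibitor wells; whole bacteria with a GFP reporter of the hypoxia response; strong numbers were not always called active; many hits fall short of the cut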
BJeLR lethal: BJeLR cell viability loss; BJeLR (HRASV12) viability, CellTiter-Glo ATP luminescence, 48 h; reference of the scale not given here; inhibition, % (test concentration not listed); actives 0.17% (n = 300,000); AID 1554;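 active = replicate mean above 50%; inconclusive = above 50% but judged a plate artefact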;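 note: 50 nL library stock added to about 25 µL; numbers are from one replicate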
Sa RN4220 lethal: kills Staphylococcus aureus RN4220 | AID 1259311 | actives 0.33% (n = 330,000) | S. aureus RN4220 growth, OD600, 16 h | inhibition, % (concentration not given with the values);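 active = z-score of -3 or lower and OD600 up to 0.18 on both plates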;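 note: plate controls were untreated cells for no effect and reference antibiotic for full effect; stock transfer was 100 nL into about 80 µL; one replicate is shown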
ugtP null kill: growth inhibition of S. aureus ugtP deletion strain. AID 1259309. S. aureus RN4220 ugtP deletion, OD600 growth, 16 h; some inactives read as strong as hits. growth inhibition, % (test concentration not listed). actives 0.54% (n = 330,000);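 active = z-score under -3 and OD600 up to 0.15 on both plates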;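 note: plate controls were untreated wells for no effect and antibiotic for full effect; wells of about 80 µL received 100 nL stock; the first replicate is given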
Autofluor counter: compound fluorescence in toxin protease inhibitor counterscreen. compound autofluorescence counterscreen, microsphere flow cytometry; hits give high values. actives 3.1% (n = 360,000). fluorescence intensity (test concentration not listed). AID 624483;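 active = at least 3 SD above the mean of all compounds, about 16000 in these data; inconclusive = too few beads counted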;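 note: 100 nL of 1 mM stock went into each well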
PrP UTR inh: suppresses PrP 5' UTR mRNA reporter expression; cell-based PrP 5' UTR mRNA reporter, plate reader; inhibition, % (test concentration not listed); actives 0.35% (n = 340,000);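 active = every replicate at 50% or more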;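 note: 0 = median of the neutral control wells; tested in H4 reporter cells; numbers are from one replicate; inactives centre near -14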
Mtb hypoxia inh growth: also measured in Mtb hypoxia inh; calls as there; growth inhibition, %; measured here: M. tuberculosis growth (absorbance);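 0% = vehicle and 100% = reference antibiotic; read after six days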
Starred values were filed as active, the others as inactive; & = joins results of further samples.

`COC(=O)c1sc(NC(=O)COC(=O)C2CCC2)c(C(=O)OC)c1C` gave Mtb hypoxia inh 0.9, Sa RN4220 lethal 2.7, ugtP null kill 6.5, Autofluor counter 5007, PrP UTR inh -18.8 and Mtb hypoxia inh growth -2.0.
`COC(=O)c1c(NC(=O)c2ccoc2C)sc(C)c1C` gave Mtb hypoxia inh -3.3, BJeLR lethal 2.5, Sa RN4220 lethal -3.8, ugtP null kill -8.7, Autofluor counter 6053, PrP UTR inh -18.5 and Mtb hypoxia inh growth -8.3.
Screening CCOc1ncccc1C(=O)Nc1ccc(-c2cn3ccsc3n2)cc1 returned Mtb hypoxia inh -0.4, BJeLR lethal -0.8, Sa RN4220 lethal 3.5, ugtP null kill -9.9, Autofluor counter 5436, PrP UTR inh -31.4 and Mtb hypoxia inh growth 8.6.
Screening CCOc1ccc(CN(C)CC(=O)NNC(=O)c2ccc(Cl)cc2)cc1OC returned Mtb hypoxia inh 3.4, BJeLR lethal -2.9, Sa RN4220 lethal 1.8, ugtP null kill 1.9, Autofluor counter 2025, PrP UTR inh -3.1 and Mtb hypoxia inh growth -2.0.
`Cc1cccc(C(=O)NCC(=O)OCC(=O)N2CCc3ccccc32)c1` gave Mtb hypoxia inh -0.1, BJeLR lethal 3.4, Sa RN4220 lethal 2.2, ugtP null kill 3.6, Autofluor counter 3435, PrP UTR inh -9.1 and Mtb hypoxia inh growth 12.0.
For COCCCNC(=O)C[C@H]1C[C@H](C(=O)N(C(C)C)C(C)C)[C@@]2(C)c3[nH]c4cc(-c5ccco5)ccc4c3CCN2C1=O the results were Mtb hypoxia inh -17.4, Sa RN4220 lethal -0.9, ugtP null kill 3.1, Autofluor counter 2998, PrP UTR inh 5.2 and Mtb hypoxia inh growth 2.4.
Screening COc1ccc(NC(=O)CN2CCN(CC(=O)Nc3ccc(OC)c(OC)c3)CC2)cc1 returned Sa RN4220 lethal -1.1, ugtP null kill -5.6, Autofluor counter 2504 and PrP UTR inh -15.4.
For COc1ccccc1CNC(=O)CCc1cn(C)c2ccccc12 the results were Mtb hypoxia inh 2.7, BJeLR lethal -5.7, Sa RN4220 lethal 6.6, ugtP null kill 3.8, Autofluor counter 3375, PrP UTR inh 66.2* and Mtb hypoxia inh growth 8.0.
For COc1cc(-c2noc(C)c2C(=O)NCCc2cccs2)cc(OC)c1OC the results were Mtb hypoxia inh 11.8, Sa RN4220 lethal 16.0, ugtP null kill 14.2, Autofluor counter 3555, PrP UTR inh -26.8 and Mtb hypoxia inh growth 10.0.
Screening COc1ccccc1/C=C(\NC(=O)c1ccccc1)C(=O)NCc1ccco1 returned Mtb hypoxia inh 0.9, BJeLR lethal -3.7, Sa RN4220 lethal 2.5, ugtP null kill 0.7, Autofluor counter 3748, PrP UTR inh -16.2 and Mtb hypoxia inh growth -0.8.
Screening C=C(C)c1cccc(C(C)(C)NC(=O)N2CCN(CC)CC2)c1 returned Mtb hypoxia inh 8.5, BJeLR lethal -8.7, Sa RN4220 lethal 2.1, ugtP null kill -3.6, Autofluor counter 3833, PrP UTR inh -5.5 and Mtb hypoxia inh growth 11.5.
Screening CC[n+]1c(/C=C(\C)Nc2ccccc2)sc2ccccc21 returned Mtb hypoxia inh 4.3, Sa RN4220 lethal 10.6, ugtP null kill -8.8, Autofluor counter 2555, PrP UTR inh 11.6 and Mtb hypoxia inh growth 6.1.
`CCOc1ccc(C(=O)NC(=S)Nc2ccc(N3CCOCC3)c(Cl)c2)cc1[N+](=O)[O-]` gave Mtb hypoxia inh 3.1, BJeLR lethal 4.5, Sa RN4220 lethal 4.1, ugtP null kill 2.0, Autofluor counter 2450, PrP UTR inh -16.2 and Mtb hypoxia inh growth -3.5.
`COc1ccc(N/N=C(\C#N)C(=N)N2CCCCC2)cc1` gave BJeLR lethal -2.4, Autofluor counter 3558 and PrP UTR inh -53.6.
For Cc1ccc(C(=O)OCC(=O)Nc2sccc2C(N)=O)cc1NC(=O)c1ccco1 the results were BJeLR lethal -11.3, Sa RN4220 lethal -0.2, ugtP null kill 9.5, Autofluor counter 2647 and PrP UTR inh -22.6.
For CC(/C=N/NC(=O)c1cccnc1)=C\c1ccco1 the results were BJeLR lethal 3.1, Autofluor counter 7899 and PrP UTR inh -27.3.
Screening NC(=NOC(=O)Cc1ccccc1[N+](=O)[O-])c1ccncc1 returned Mtb hypoxia inh 0.5, Sa RN4220 lethal 5.0, ugtP null kill 4.4 and Mtb hypoxia inh growth 9.6.
`Cc1ccc(OCC(=O)Nc2ccc(CN3CCOCC3)cc2)cc1` gave Mtb hypoxia inh -7.4, BJeLR lethal -10.6, Sa RN4220 lethal 2.3, ugtP null kill -3.5, Autofluor counter 4383, PrP UTR inh 7.0 and Mtb hypoxia inh growth -6.5.
CC(CN1CCOCC1)OC(=O)C1COc2ccccc2O1 (centres undefined) was read as Mtb hypoxia inh -5.8, BJeLR lethal 2.8, Sa RN4220 lethal 4.5, ugtP null kill 1.4, Autofluor counter 4414, PrP UTR inh -32.8 and Mtb hypoxia inh growth 1.1.
COc1ccc(C=NNC(=O)c2cc(OC)c(OC)c(OC)c2)cc1CN1CCc2cc(OC)c(OC)cc2C1C (centres undefined) was read as Mtb hypoxia inh -4.4, Sa RN4220 lethal 0.3, ugtP null kill -1.6 and Mtb hypoxia inh growth 15.4.
`Cc1c(C(=O)O)cc(-c2ccccc2)n1Cc1ccccc1` gave Mtb hypoxia inh 11.2, BJeLR lethal 11.2, Sa RN4220 lethal 1.1, ugtP null kill 0.7, Autofluor counter 3815, PrP UTR inh -17.9 and Mtb hypoxia inh growth 0.6.
Screening CCc1ccccc1NS(=O)(=O)c1c(C(=O)N2CCCCCC2)c(C)n(C)c1C returned Mtb hypoxia inh 2.9, BJeLR lethal 11.1, Sa RN4220 lethal 1.6, ugtP null kill 3.6, Autofluor counter 5561, PrP UTR inh 2.9 and Mtb hypoxia inh growth -4.1.
For COc1ccc(N=N/C(=C\O)C(=O)c2cccs2)cc1 the results were Mtb hypoxia inh 6.7, BJeLR lethal 4.6, Sa RN4220 lethal 4.6, ugtP null kill 17.6, Autofluor counter 2395, PrP UTR inh -16.9 and Mtb hypoxia inh growth -3.8.
CCC(=O)N1CCc2cc(S(=O)(=O)CCC(=O)NCc3ccccc3OC)ccc21 was read as Mtb hypoxia inh -8.1, BJeLR lethal -10.7, Sa RN4220 lethal -2.0, ugtP null kill -4.4, Autofluor counter 4113, PrP UTR inh -23.8 and Mtb hypoxia inh growth 2.9.
`O=C(c1cc(C2CC2)nc2ccccc12)N1N=C(C(F)F)CC1(O)C(F)F` (centres undefined) gave Mtb hypoxia inh -3.9, BJeLR lethal 0.3, Sa RN4220 lethal 7.7, ugtP null kill -3.4, Autofluor counter 18689*, PrP UTR inh -37.9 and Mtb hypoxia inh growth 11.1.
`Cn1cc([N+](=O)[O-])c(C(=O)NC2CCCCCC2)n1` gave Mtb hypoxia inh 5.1, BJeLR lethal -1.6, Sa RN4220 lethal 2.8, ugtP null kill 9.3, Autofluor counter 4241, PrP UTR inh -26.2 and Mtb hypoxia inh growth -4.1.
O=S(=O)(c1ccc(Br)cc1)N1CCN(c2ccc3nnc(-c4ccccc4)n3n2)CC1 was read as Mtb hypoxia inh 6.8, BJeLR lethal 12.1, Sa RN4220 lethal 0.9, ugtP null kill 1.5, Autofluor counter 6605, PrP UTR inh -7.0 and Mtb hypoxia inh growth 3.3.
`COc1ccccc1C(=O)NCC(=O)N/N=C/c1cn[nH]c1-c1ccccc1` gave BJeLR lethal 4.0, Autofluor counter 2216 and PrP UTR inh -15.2.
`Cc1ccc(C(=O)N2CCCN(c3nc4cc5c(cc4cc3C#N)OCO5)CC2)cc1` gave Mtb hypoxia inh 6.3, BJeLR lethal 3.9, Sa RN4220 lethal 18.8, ugtP null kill 1.5, Autofluor counter 4269, PrP UTR inh -56.1 and Mtb hypoxia inh growth 2.6.
`COc1ccc(C(=O)C2CCCN(S(=O)(=O)N(C)C)C2)c(C)c1` (centres undefined) gave Mtb hypoxia inh 10.0, BJeLR lethal -9.7, Sa RN4220 lethal 3.3, ugtP null kill 1.1, Autofluor counter inconclusive, PrP UTR inh -23.4 and Mtb hypoxia inh growth 9.0.

3 entries picked at random from those above, as already listed:
`O=C(c1cc(C2CC2)nc2ccccc12)N1N=C(C(F)F)CC1(O)C(F)F` (centres undefined) gave Mtb hypoxia inh -3.9, BJeLR lethal 0.3, Sa RN4220 lethal 7.7, ugtP null kill -3.4, Autofluor counter 18689*, PrP UTR inh -37.9 and Mtb hypoxia inh growth 11.1.
`Cc1cccc(C(=O)NCC(=O)OCC(=O)N2CCc3ccccc32)c1` gave Mtb hypoxia inh -0.1, BJeLR lethal 3.4, Sa RN4220 lethal 2.2, ugtP null kill 3.6, Autofluor counter 3435, PrP UTR inh -9.1 and Mtb hypoxia inh growth 12.0.
CC(CN1CCOCC1)OC(=O)C1COc2ccccc2O1 (centres undefined) was read as Mtb hypoxia inh -5.8, BJeLR lethal 2.8, Sa RN4220 lethal 4.5, ugtP null kill 1.4, Autofluor counter 4414, PrP UTR inh -32.8 and Mtb hypoxia inh growth 1.1.

The list goes on:
`CC(C1CC1)N(Cc1ccccc1)C(=S)Nc1ccccc1Cl` (centres undefined) gave Mtb hypoxia inh 11.0, BJeLR lethal -0.2, Sa RN4220 lethal 2.0, ugtP null kill -0.3, Autofluor counter 4613, PrP UTR inh -19.1 and Mtb hypoxia inh growth 7.2.
`Cc1[nH]c2ccccc2c1C(=O)C(=O)NCCC1=CCCCC1` gave Mtb hypoxia inh 7.4, BJeLR lethal 6.0, Sa RN4220 lethal 4.0, ugtP null kill 11.2, Autofluor counter 2465, PrP UTR inh -24.8 and Mtb hypoxia inh growth 3.9.
For Cc1ccccc1N1C(=O)CC(N(O)c2ccccc2)C1=O (centres undefined) the results were Mtb hypoxia inh 10.9, BJeLR lethal -3.2, Sa RN4220 lethal 0.0, ugtP null kill 9.8, Autofluor counter 6840, PrP UTR inh -17.8 and Mtb hypoxia inh growth 4.8.
`COc1ccc(-c2noc(CSc3ccc(C)cc3)n2)cc1` gave Mtb hypoxia inh 1.8, BJeLR lethal 2.3, Sa RN4220 lethal 6.7, ugtP null kill 70.6, Autofluor counter 23954*, PrP UTR inh -16.5 and Mtb hypoxia inh growth 5.5.
COc1ccc(-c2ccc(C#N)c(SCC(=O)NCc3ccco3)n2)cc1OC was read as Mtb hypoxia inh -13.3, BJeLR lethal 6.6, Sa RN4220 lethal -1.0, ugtP null kill -3.5, PrP UTR inh 3.6 and Mtb hypoxia inh growth 11.9.
COc1ccc(/C=C(/NC(=O)c2cccc([N+](=O)[O-])c2)C(=O)O)cc1OC was read as Mtb hypoxia inh 5.4, BJeLR lethal 3.1, Sa RN4220 lethal 5.7, ugtP null kill 4.9, Autofluor counter 3630, PrP UTR inh -12.0 and Mtb hypoxia inh growth -1.0.
`C[C@@H]1CN(S(=O)(=O)c2c(F)cccc2F)CCN1S(=O)(=O)c1ccc2c(c1)OCCO2` gave Mtb hypoxia inh 7.3, Sa RN4220 lethal -10.9, ugtP null kill 0.2, Autofluor counter 3408, PrP UTR inh -4.0 and Mtb hypoxia inh growth 2.8.
`COc1ccc(NC(=S)Nc2ccc(OCc3ccccc3)cc2)cc1OC` gave Mtb hypoxia inh 15.6, BJeLR lethal -3.8, Sa RN4220 lethal -10.7, ugtP null kill 55.1, Autofluor counter 2443, PrP UTR inh -16.9 and Mtb hypoxia inh growth 8.0.
For CCCC(=O)Nc1ccc(C(=O)NNC(=O)c2ccccc2Br)cc1 the results were Mtb hypoxia inh 3.9, BJeLR lethal 13.0, Sa RN4220 lethal 5.3, ugtP null kill 4.6, Autofluor counter 7805, PrP UTR inh -1.0 and Mtb hypoxia inh growth 2.8.
Screening CCOC(=O)C1C2COc3ccc(Br)cc3C2N2C(=O)N(c3ccc(C)cc3)C(=O)[C@]12C (some centres undefined) returned Mtb hypoxia inh -2.3&2.1, Sa RN4220 lethal -0.3&1.1, ugtP null kill -0.6&8.5 and Mtb hypoxia inh growth -7.6&3.1.
COc1ccc(OC)c(CCNC(=O)C2CCN(c3ncnc4c3nc3n4CCCCC3)CC2)c1 was read as Mtb hypoxia inh -0.8, BJeLR lethal -1.4, Sa RN4220 lethal 1.6, ugtP null kill 2.6, Autofluor counter 5424, PrP UTR inh 3.0 and Mtb hypoxia inh growth 2.9.
Nc1n[nH]c(C2CC2)c1N=Nc1ccc(Cl)cc1 was read as Mtb hypoxia inh 11.9, BJeLR lethal -1.8, Sa RN4220 lethal 33.7, ugtP null kill 73.5, Autofluor counter 3685 and Mtb hypoxia inh growth 0.2.

The order is random; overall some 4% were active at least once.
